TRPML1 inh = human mucolipin-1 channel inhibition. Q9GZU1. TRPML1-inducible cells, Ca2+ dye fluorescence, FDSS; stronger effect = lower value; inhibition of EC80 agonist-evoked calcium signal. activity change, negative = inhibition, % (test concentration not listed). 390,000 compounds, 0.02% hits. AID 624415; in the data active means activity change below about -50%; inconclusive means about -30% to -50%; inactive means above about -30%;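 note: stimulus is agonist 54-4 at its EC80 concentration; % is set by controls: 0 for no effect and ±100 for the full control effect; compound concentration not given in the record; the text of the record puts the active cut at -80%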
Target sequence (Q9GZU1 whole entry, looked up): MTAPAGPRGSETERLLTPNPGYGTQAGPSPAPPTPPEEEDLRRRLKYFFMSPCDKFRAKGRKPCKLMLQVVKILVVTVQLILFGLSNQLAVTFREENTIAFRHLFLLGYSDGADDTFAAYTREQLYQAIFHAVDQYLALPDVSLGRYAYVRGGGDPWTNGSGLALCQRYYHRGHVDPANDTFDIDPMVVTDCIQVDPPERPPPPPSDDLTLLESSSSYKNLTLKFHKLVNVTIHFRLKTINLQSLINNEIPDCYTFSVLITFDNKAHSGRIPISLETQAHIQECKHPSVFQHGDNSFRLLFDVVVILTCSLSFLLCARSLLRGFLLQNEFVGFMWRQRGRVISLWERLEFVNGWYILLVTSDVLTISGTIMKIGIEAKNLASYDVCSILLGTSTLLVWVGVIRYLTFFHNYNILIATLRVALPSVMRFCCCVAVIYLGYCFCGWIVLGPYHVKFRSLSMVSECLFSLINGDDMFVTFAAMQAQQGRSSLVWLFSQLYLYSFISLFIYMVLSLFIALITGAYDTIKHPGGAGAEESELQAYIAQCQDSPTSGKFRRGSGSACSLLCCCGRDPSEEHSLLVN
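Calcium fluorescence in TRPML1-DL cells induced overnight with Tet: a 110 s read after compound pin addition, then a 110 s antagonist read after challenge with 54-4 at 4 uM final (EC80).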
Six1-Eya2 blk = blocks human Six1 binding to Eya2. Q15475+O00167. AlphaScreen GST-Six1/His-Eya2 binding, biochemical; stronger effect = lower value; control for the full effect not named in the record. activity change, % (no concentration beside the values). 360,000 compounds, 0.56% hits. AID 651725; in the data active = activity change below about -65%; inconclusive = about -30% to -65%; inactive = above about -30%; note: % is set by controls: 0 for no effect and ±100 for the full control effect
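Six1/Eya2 binding was read as AlphaScreen signal after compounds were pinned into GST-Six1 plus His-tagged Eya2 (5X stock 250/500 nM) in pH 8.0 Tris/NaCl/TCEP buffer, beads added, then incubated 1 h, 37 C, dark.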
D2 ag = human D2 receptor agonism in beta-arrestin assay | P14416 | DiscoveRx PathHunter D2 beta-arrestin, luminescence, 90 min; 100% = 57 uM dopamine signal | activation, % (concentration not given with the values) | 360,000 compounds, 0.084% hits | AID 624465; in the data active = activation above about 40%; inconclusive = about 15% to 40%; inactive = below about 15%; note: the text of the record calls up to 30% inactive
Target sequence (P14416 whole entry, looked up): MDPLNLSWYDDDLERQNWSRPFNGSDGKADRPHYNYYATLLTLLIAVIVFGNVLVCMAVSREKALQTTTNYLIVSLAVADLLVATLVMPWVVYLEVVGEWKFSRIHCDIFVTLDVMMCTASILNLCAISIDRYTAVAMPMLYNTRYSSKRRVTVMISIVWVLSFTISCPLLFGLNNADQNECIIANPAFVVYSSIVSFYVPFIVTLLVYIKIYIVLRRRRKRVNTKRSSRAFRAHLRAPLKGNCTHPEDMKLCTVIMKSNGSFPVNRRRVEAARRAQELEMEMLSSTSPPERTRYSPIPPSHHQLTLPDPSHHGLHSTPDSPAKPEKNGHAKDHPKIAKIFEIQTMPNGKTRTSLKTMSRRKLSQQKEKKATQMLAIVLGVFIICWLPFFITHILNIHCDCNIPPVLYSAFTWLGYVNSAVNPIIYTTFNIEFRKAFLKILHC
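Agonist mode: compounds alone added to overnight-plated D2 PathHunter cells for 90 min at 37 C, with 57 uM final dopamine (EC100) defining full response. Beta-arrestin recruitment detected by chemiluminescent reagent, read after 1 h at ambient temperature.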
TRPML1 ag = human mucolipin-1 channel agonism; 410,000 compounds, 0.12% hits; AID 624414; TRPML1-expressing cells, Ca2+ dye fluorescence, FDSS; host cell line not named in the record; reference of the full effect not given here; Q9GZU1; activation, % (concentration not given with the values); in the data active = activation above about 50%; inconclusive = about 30% to 50%; inactive = below about 30%; note: 0% is about no effect; the text of the record puts the active cut at 80%
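Tetracycline-induced TRPML1-DL cells are seeded and incubated overnight before loading with a no-wash Ca2+ dye and quencher. Agonist activity is taken from the 110 s fluorescence read following compound pin-transfer on an FDSS, before EC80 54-4 challenge.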
PINK1 expr mod = changes PINK1 expression; PINK1 immunofluorescence, high-content cytometry, 24 h; Potency, µM (titrated, usually from 76.6 µM), for the others: at the top dose activation (PINK1 increase), usual class: activators; 410,000 compounds, 0.2% hits; active = well fitted activation curve with a large enough effect; inconclusive = small, poorly fitted or top-dose-only effect; inactive = flat fitted curve, though single readings scatter; cell line not stated here;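 note: potency is the fitted concentration of half-maximal effect; % of control where 0% means no effect; nearly all actives have a fitted effect of over 65% in size; a mitochondrial uncoupler was the plate control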
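PINK1 protein level read as immunofluorescence by microplate cytometer in a fixed, stained stable cell line after 24 h exposure to five compound concentrations, with CCCP as control.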
D2 PAM = human D2 receptor positive allosteric modulation; DiscoveRx D2 beta-arrestin cells, luminescence, 90 min; 100% = 57 uM dopamine signal; potentiation, % (concentration not given with the values); 360,000 compounds, 0.23% hits; active = potentiation of 50% or more; inconclusive = 30% to 50%; inactive = 30% or less;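 note: tested on top of an EC20 dose of dopamine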
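PathHunter beta-arrestin assay in DiscoveRx D2 cells. Compounds were added with an EC20 of dopamine (50 nM final) for 90 min at 37 deg C. Luminescence was read 1 h after detection reagent, with 57 uM dopamine as the EC100 control.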
Active calls of the source: *; ? = inconclusive; nt = no result given; & = joins results of further samples; [ ] = another dose, or the depositor's remark.

smiles | TRPML1 inh | Six1-Eya2 blk | D2 ag | TRPML1 ag | PINK1 expr mod | D2 PAM
CCCNC(=O)C1(C)CCCN(C(=O)c2cc(C)n(C(C)(C)C)n2)C1 (stereo not given) | nt | 0 | -2.2 | -0.7 | 1.2% | -2
COc1ccc(CC(=O)N(Cc2ccccc2)c2cccc(C)c2)cc1OC | -10 | 0 | -4.9 | 1.7 | -0.5% | -26
O=C(O)Cn1cnc2scc(-c3cccs3)c2c1=O | -12 | 1 | 1.5 | -0.2 | 1.0% | -17
Cc1ccccc1C(=O)N1CCC(C(=O)N2CCN(c3ncccn3)CC2)CC1 | 2 | -1 | 7.8 | -0.2 | -0.9% | -3
CCN(CC(=O)Nc1ccccc1OC)C(=O)CCOc1ccc(C(C)(C)C)cc1 | -14 | 2 | -2.7 | 0.5 | 1.1% | -14
CCOC(=O)c1cc2sccc2n1CC(=O)c1ccc2c(c1)OCCO2 | -5 | -8 | -1.0 | -0.2 | 0.7%[38.3 µM] | -7
Cc1ccc(CNC(=O)CSCC(=O)O)cc1 | 6 | 6 | -1.7 | 1.3 | 3.6% | 5
O=C1c2ccccc2C(c2nnnn2Cc2ccccc2)N1Cc1cccc(F)c1 (stereo not given) | nt | 14&11 | nt | -0.9&-0.9 | 0.0%&-0.5% | nt
O=C(O)c1c2c(nc3ccc(S(=O)(=O)N4CCC(C(=O)NC5CCCCCC5)CC4)cc13)CCCC2 | 23 | ? | -7.0 | 0.1 | 1.4% | 0
COCn1ccnc1C(=O)c1ccco1 | 77 | 1 | -9.2 | 0.6 | 2.1% | -13
c1ccc(Cn2nnc3c(NCCN4CCOCC4)ncnc32)cc1 | -18 | 3 | -0.5 | 0.2 | 2.2%[38.3 µM] | -1
COc1cc2c(cc1OC)CN(C(=O)c1ccc([N+](=O)[O-])o1)CC2 | -6 | 0 | 9.3 | 2.8 | 3.1% | 15
COc1cc(/C=C2\SC(=S)N(CC(=O)NC(C)(C)C)C2=O)cc(OC)c1OC | 7 | -8 | -5.4 | 2.7 | 1.9% | -2
COc1cc(/C=N/NC(=O)c2ccncc2)ccc1OC(C)=O | -17 | -3 | -2.2 | 0.2 | 0.4% | -2
CC(=O)c1ccc(NC(=O)CSc2nccn2Cc2ccco2)cc1 | 54 | nt | nt | 0.5 | 27% | nt
CCS(=O)(=O)c1nc(S(=O)(=O)c2ccc(Cl)cc2)c(NCCN2CCOCC2)s1 | 9 | -1 | 0.0 | -0.9 | -0.1% | -7
O=[N+]([O-])c1cccc(CON=Cc2ccccc2O)c1 | 11 | -5 | -1.6 | -0.5 | 3.5% | -13
COc1ccc(-n2cnnc2SCC(=O)N(C)c2ccccc2)cc1 | -8 | 4 | -2.5 | -0.2 | 7.4% | -2
CC1(C)OC(C(N)=O)C(C(N)=O)O1 (stereo not given) | 2 | 3 | -3.4 | 0.0 | 3.3% | -7
CC1CCN(c2nn3c(=O)c(C(=O)NCCc4ccccc4)cnc3s2)CC1 | 8 | nt | nt | 0.2 | 0.8% | nt
O=C(N/N=C/c1cc([N+](=O)[O-])ccc1N1CCNCC1)c1ccc([N+](=O)[O-])cc1 | 1 | 0 | 0.3 | -0.2 | -3.5% | -7
Cc1ccc(S(=O)(=O)N(C)CC(=O)Nc2cccc3c2CCCC3)cc1 | -3 | -2 | -3.9 | 3.0 | -1.0% | 3
COC(=O)c1ccc(NC(=O)COC(=O)C2CC(=O)N(Cc3ccccc3)C2)cc1 (stereo not given) | -9 | 9 | 2.0 | 0.6 | 2.1% | -15
Cc1nn(CC(C)C)c(Cl)c1C(=O)N(C)CC(=O)Nc1ccc(Cl)cc1 | -1 | -3 | -3.0 | -0.6 | 1.1% | -14

A second format for some results above:
Every second line gives: TRPML1 inh	Six1-Eya2 blk	D2 ag	TRPML1 ag	PINK1 expr mod	D2 PAM
> CC1(C)OC(C(N)=O)C(C(N)=O)O1 (stereo not given)
 : 2	3	-3.4	0.0	3.3%	-7
> CC1CCN(c2nn3c(=O)c(C(=O)NCCc4ccccc4)cnc3s2)CC1
 : 8	nt	nt	0.2	0.8%	nt

Additional records follow:
smiles | TRPML1 inh | Six1-Eya2 blk | D2 ag | TRPML1 ag | PINK1 expr mod | D2 PAM
CC(C)Oc1ccc(CNC(=O)C(C)n2ccc3cc(S(=O)(=O)N4CCCCCC4)ccc32)cc1 (stereo not given) | 0 | nt | nt | 1.7 | -1.6% | nt
Cc1ccc(-n2ncc3c(=O)n(Cc4ccccc4C)cnc32)cc1C | 30 | nt | nt | 2.3 | 1.2% | nt
Oc1ccc(CCc2ccccn2)cc1 | 9 | 2 | -2.1 | 0.0 | 0.6% | -11
Cc1ccc(C(=O)NNc2cc(N3CCCC3)nc(N3CCCC3)n2)cc1 | 24 | -12 | -3.6 | 0.8 | -0.1% | -23
c1ccc(-c2ccc(C3=Nn4c(nnc4-c4cccs4)SC3)cc2)cc1 | 8 | ? | -2.3 | 0.8 | 1.6% | -8
CCc1nc(NCc2ccccc2)c(C#N)c2c1CCCC2 | 12 | -4 | -2.4 | 1.1 | 21% | 3
CCC(=O)N1N=C(c2ccc(C)o2)CC1c1ccc(N(C)C)cc1 (stereo not given) | -11 | -10 | -17 | 0.7 | 1.0% | -6
CCOc1ccccc1NC(=S)Nc1ccc2cn[nH]c2c1 | -14 | 7 | -3.8 | 1.6 | 0.1% | 5
COc1ccc(C(=O)O)cc1NC(=S)NC(=O)/C=C/c1ccc(C(C)C)cc1 | -22 | 0 | -1.1 | 0.8 | 5.2% | -2
CCn1c(=NC(=O)C2COc3ccccc3O2)sc2c(C)ccc(OC)c21 (stereo not given) | 31 | -1 | -1.3 | 1.3 | 6.5% | -12
COc1ccc(CN(C)S(=O)(=O)c2ccc3c(c2)OCCO3)cc1 | 1 | 1 | -7.2 | 0.5 | 4.6% | -6
CCC(=O)Nc1nnc(SCc2cccc(F)c2)s1 | -12 | 12 | -0.4 | 0.3 | -1.4% | -10
Fc1ccccc1-c1n[nH]c(=S)n1/N=C/c1c[nH]c2ccccc12 | -8 | ? | -2.8 | -0.4 | 0.6% | -15
Cc1ccc(Cc2c(C)nc3nc(SCC(=O)NCCC(C)C)nn3c2C)cc1 | 0 | nt | nt | -0.3 | -0.2% | nt
CNC(=O)Nc1ccc(Cl)cc1 | -22 | -3 | -1.0 | -0.2 | -2.5% | -25
O=C(c1cccc(F)c1)N1CCN(Cc2c[nH]c3ccccc23)CC1 | -29 | 9 | -3.5 | 0.7 | -0.9% | -18

In another format: entries from further up
Results follow in this order: TRPML1 inh	Six1-Eya2 blk	D2 ag	TRPML1 ag	PINK1 expr mod	D2 PAM
O=C1c2ccccc2C(c2nnnn2Cc2ccccc2)N1Cc1cccc(F)c1 (stereo not given)
    nt	14&11	nt	-0.9&-0.9	0.0%&-0.5%	nt
O=C(O)c1c2c(nc3ccc(S(=O)(=O)N4CCC(C(=O)NC5CCCCCC5)CC4)cc13)CCCC2
    23	?	-7.0	0.1	1.4%	0

The listing continues:
smiles | TRPML1 inh | Six1-Eya2 blk | D2 ag | TRPML1 ag | PINK1 expr mod | D2 PAM
O=C(Nc1cccc2cccnc12)c1ccc(Br)o1 | 21 | -3 | 1.3 | 1.1 | -4.9%[38.3 µM] | -9
Cc1cc(C)c(C)c(N=Nc2nc3ccccc3n2C)c1C | -3 | -3 | -9.8 | 2.1 | 12% | -23
CC(NC(=O)c1ccc(CS(=O)(=O)c2cccc(C(F)(F)F)c2)o1)c1ccc2c(c1)OCCO2 (stereo not given) | 23 | -3 | 0.0 | 2.5 | -1.2% | 1
CN(C)c1ccc(/C=N/NC(=O)c2cnc3ccccc3c2)cc1 | 17 | -1 | -1.8 | 0.7 | 8.5% | -9
O=C(CN(Cc1ccc(Cl)c(Cl)c1)S(=O)(=O)c1ccccc1)N/N=C\c1ccc2c(c1)OCO2 | 6 | -17 | 3.3 | 0.8 | 1.3% | -2
COc1ccc(NC(=S)Nc2ccccc2C(F)(F)F)cc1 | -5 | 2 | 1.9 | 0.0 | 1.6% | -6
CCN(C(=O)CSc1nc2ccccc2n1CC(C)C)c1c(N)n(Cc2ccccc2)c(=O)[nH]c1=O | 16 | -3 | -2.7 | -0.7 | 0.7% | -2
Cc1ccsc1C(=O)OCC(=O)NCc1ccccc1 | -1 | 8 | -11 | 0.2 | 1.4% | -9
COCCOC(=O)CC1=NC(=O)CS1 | -3 | -4 | -4.9 | -0.6 | 1.7% | 0
Cc1ccccc1-c1cc2nc(-c3ccc([N+](=O)[O-])cc3)cc(=O)n2[nH]1 | 13 | 6 | -1.6 | -0.2 | -3.0% | 3
CCC(C)Nc1c([N+](=O)[O-])cc(C)cc1[N+](=O)[O-] (stereo not given) | 21 | -26 | -7.3 | 3.4 | 8.7% | -15
Cc1onc(C(=O)N2CCOCC2)c1[N+](=O)[O-] | -9 | 5 | -1.3 | 1.2 | -0.6% | -6
O=C(N[C@@H](Cc1ccccc1)C(=O)NCCc1c[nH]c2ccccc12)c1ccco1 | 14 | 2 | -2.0 | 1.8 | -0.5% | -5
Cc1cccc(NC(=O)CSc2nnc(CNC(=O)c3ccc(S(=O)(=O)N(C)C)cc3)n2-c2ccc(F)cc2)c1 | -4 | -9 | -2.1 | -0.2 | 3.3% | -25

An excerpt of these results, as labelled records.
O=C(N[C@@H](Cc1ccccc1)C(=O)NCCc1c[nH]c2ccccc12)c1ccco1
  TRPML1 inh: 14
  Six1-Eya2 blk: 2
  D2 ag: -2.0
  TRPML1 ag: 1.8
  PINK1 expr mod: -0.5%
  D2 PAM: -5
Cc1cccc(NC(=O)CSc2nnc(CNC(=O)c3ccc(S(=O)(=O)N(C)C)cc3)n2-c2ccc(F)cc2)c1
  TRPML1 inh: -4
  Six1-Eya2 blk: -9
  D2 ag: -2.1
  TRPML1 ag: -0.2
  PINK1 expr mod: 3.3%
  D2 PAM: -25
Cc1onc(C(=O)N2CCOCC2)c1[N+](=O)[O-]
  TRPML1 inh: -9
  Six1-Eya2 blk: 5
  D2 ag: -1.3
  TRPML1 ag: 1.2
  PINK1 expr mod: -0.6%
  D2 PAM: -6
COCCOC(=O)CC1=NC(=O)CS1
  TRPML1 inh: -3
  Six1-Eya2 blk: -4
  D2 ag: -4.9
  TRPML1 ag: -0.6
  PINK1 expr mod: 1.7%
  D2 PAM: 0
